Screening data deposited in PubChem BioAssay by ICCB-Longwood Screening Facility, Harvard Medical School.
Sa growth 42C = S. aureus growth inhibition at 42 and 30 °C, primary screen, LtaS inhibitor project, RN4220, two temperatures; relative growth, % (test concentration not listed); OD600, 20 h, 42 °C; hits give low values; 170,000 tested, 0.53% active;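 active = growth at 42 °C up to 50% and 20 or more points under that at 30 °C, or under 10% at both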;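 note: 300 nL library stock went into each well; scaled to the means of positive and negative controls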
GIV-Gai inh = inhibitors of GIV peptide binding to Galpha-i3, primary screen, biochemical, fluorescence polarization, FITC-GIV GBA peptide, rat Galphai3; 90 min; hits give low values; scaled: aluminum fluoride 0%, vehicle 100%; percent of control (FP), % (concentration not given with the values); AID 1224905, 2016; 210,000 tested, 0.42% active;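 active = replicate mean at 85% of control or lower, very high polarization wells dropped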;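 note: wells of about 15 µL received 100 nL stock; the first replicate is given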
Target sequence (P08753 whole entry, looked up): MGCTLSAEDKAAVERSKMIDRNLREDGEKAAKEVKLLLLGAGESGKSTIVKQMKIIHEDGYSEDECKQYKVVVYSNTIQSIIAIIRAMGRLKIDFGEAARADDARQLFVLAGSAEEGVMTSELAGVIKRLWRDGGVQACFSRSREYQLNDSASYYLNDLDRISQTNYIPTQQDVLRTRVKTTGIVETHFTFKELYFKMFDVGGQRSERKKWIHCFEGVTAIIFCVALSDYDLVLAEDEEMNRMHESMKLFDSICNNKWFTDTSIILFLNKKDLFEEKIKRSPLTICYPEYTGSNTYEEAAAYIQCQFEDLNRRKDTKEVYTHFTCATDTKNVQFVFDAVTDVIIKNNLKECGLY
HCMV UL50-53 inh = inhibitors of HCMV UL50-UL53 interaction, biochemical, HTRF; HCMV UL50-UL53 nuclear egress complex (human cytomegalovirus); normalized percent inhibition; inhibition, % (no concentration beside the values); 190,000 tested, 0.15% active;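 active = both replicates at 50% or more, plus weaker picks with an unusually low signal ratio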;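 note: stock transfer was 100 nL into about 20 µL; 0% = negative control wells and 100% = wells with untagged competitor protein; inactives centre near -12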
Sa growth 42C second temp = recorded beside Sa growth 42C, whose call it bears; relative growth, %; measured here: growth at 30 °C;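 optical density after 20 h as mean of two plates; 100% = untreated growth and lower means inhibition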
* = called active by the depositor; / = not tested or not shown. Hits appear at their usual frequency; overall some 0.83% were active at least once.

entry	smiles	Sa growth 42C	Sa growth 42C second temp	GIV-Gai inh	HCMV UL50-53 inh
1	Fc1ccccc1CN1CCN(Cc2c[nH]c3ccccc23)CC1	/	/	99	17
2	CC12CCC(=O)N1C(C(=O)OCc1cc(=O)n3ccsc3n1)CS2 (stereo unspecified)	75	93	/	-17
3	CC1=CC(C)C(COC(=O)CN2CCCC2)C(C)C1 (stereo unspecified)	95	91	101	-10
4	O=C(NCCn1c(-c2ccccc2)nc2cccnc21)c1ccccc1Br	/	/	105	-25
5	Cc1nn(C)c2c1c(C(F)(F)F)cc(=O)n2CC(=O)NCc1ccccc1Cl	109	88	103	/
6	COc1ccc(NC(=O)C2CCCN(S(=O)(=O)c3c(C)[nH]c(=O)[nH]c3=O)C2)cc1OC (stereo unspecified)	106	106	103	-4
7	CC(C)NC(=O)CCn1nc(-c2ccc(Cl)cc2)c2ccccc2c1=O	92	77	102	-11
8	CCCNC(=O)C1CCC(Cn2c(=O)c3sccc3n(CC(=O)NCc3cccc(OC)c3OC)c2=O)CC1 (stereo unspecified)	93	92	106	-16
9	COC(=O)CN(c1nc2nc(C)c(Cl)c(C)n2n1)S(=O)(=O)c1ccccc1	/	/	103	-10
10	CNC(=S)N(Cc1cc2cc(OC)ccc2[nH]c1=O)CC1CCCO1 (stereo unspecified)	92	110	107	4
11	CCOC(=O)CNC(=O)c1cc2c(=O)oc3ccccc3c2s1	101	106	101	2
12	COc1ccccc1CNC(=O)Cn1c(=O)nc(-c2ccccc2F)c2cc(Cl)ccc21	73	75	103	/
13	Oc1ccccc1Oc1c(F)c(F)nc(F)c1Cl	49	10	101	-28
14	Cc1ccc(C2=NC3(CCCCC3)NC2=O)cc1	87	90	107	-16
15	CC(=O)Nc1cnn(-c2ccccc2)c(=O)c1Cl	102	93	104	-57
16	CCC1(C(=O)c2ccccc2)C2c3cc(Br)ccc3OC(=O)C21C(=O)c1ccco1 (stereo unspecified)	77	84	103	/
17	CCOc1ccc(S(=O)(=O)NCCC(=O)NC2=NCCS2)cc1	88	86	/	-5
18	COc1cc(S(=O)(=O)n2cnc3cc(C)c(C)cc32)c(C)cc1C	99	96	107	-8
19	COc1ccc(S(=O)(=O)c2c(C)cc(C)n(CC(=O)Nc3cc(Cl)ccc3OC)c2=O)cc1	/	/	103	-15
20	CSc1ccc(/C=N/OCc2ncc(-c3ccccc3)o2)cc1	108	106	/	-6
21	O=C(CSC(=S)N1CCSCC1)c1ccc(Cl)cc1	105	99	110	-2
22	CC1C/C(=C/c2cccnc2)C(=O)/C(=C/c2cccnc2)C1 (stereo unspecified)	71	62	/	-18
23	CCOC(=O)Cc1nnc(NC(=O)C(CC)Sc2nnc3c4ccccc4n(C)c3n2)s1 (stereo unspecified)	87	88	/	-13
24	CCCOc1ccc(C(=O)O)cc1	128	86	/	-34
25	COC(=O)C1=C(C)NC2=C(C(=O)CC(C)(C)C2)C1c1ccc(OCc2ccc(Cl)cc2)c(OC)c1 (stereo unspecified)	/	/	100	-14
26	COc1ccc(-c2nc3ccc(C(=O)NCc4ccccc4)cc3nc2-c2ccc(OC)cc2)cc1	124	91	100	/
27	CCOc1ccc(NC(=O)Cn2cc(C(=O)c3ccc(CC)cc3)c(=O)c3cc(C)ccc32)cc1	100	97	99	-16
28	O=C(Cn1cnc2c(cnn2-c2ccccc2)c1=O)N1CCCc2ccccc21	129	82	103	8
29	O=C(CNC(=O)c1ccc(Cl)cc1)c1ccc(Cl)cc1	101	91	102	11
30	CCc1ccc(Sc2cc(C(=O)NCc3ccccc3OC)c3ccccc3n2)cc1	128	82	101	/
31	CC(C)NC(=O)Cn1c(=O)n(-c2ccc(CC(=O)NC3CC3)cc2)c(=O)c2ccccc21	/	/	101	-8
32	O=C(Cn1c(=O)c2ccccc2n2nncc12)Nc1ccccc1	97	84	103	-3
33	COc1ccc(NC(=O)C(C)n2sc3ccccc3c2=O)c(OC)c1 (stereo unspecified)	94	61	99	-12
34	Cn1c(=O)c(-c2noc(C(=O)NCCCN3CCCC3)n2)nn(-c2ccccc2)c1=O	/	/	104	-142
35	Cc1ccc(NC(=O)CN2C(=O)C3(SCC(=O)N3c3cccc(Cl)c3)c3ccccc32)cc1C (stereo unspecified)	119	100	100	/
36	CCOc1ccc2nc(SCC(=O)NCC3CCCO3)c(C#N)cc2c1 (stereo unspecified)	106	97	99	-29

Arranged by the number under GIV-Gai inh (highest first): some entries from above
#	SMILES	Sa growth 42C second temp	GIV-Gai inh
21	O=C(CSC(=S)N1CCSCC1)c1ccc(Cl)cc1	99	110
14	Cc1ccc(C2=NC3(CCCCC3)NC2=O)cc1	90	107
4	O=C(NCCn1c(-c2ccccc2)nc2cccnc21)c1ccccc1Br	/	105
34	Cn1c(=O)c(-c2noc(C(=O)NCCCN3CCCC3)n2)nn(-c2ccccc2)c1=O	/	104
7	CC(C)NC(=O)CCn1nc(-c2ccc(Cl)cc2)c2ccccc2c1=O	77	102
1	Fc1ccccc1CN1CCN(Cc2c[nH]c3ccccc23)CC1	/	99

The main list resumes; the 3 compounds before the break are reprinted first.
entry	smiles	Sa growth 42C	Sa growth 42C second temp	GIV-Gai inh	HCMV UL50-53 inh
34	Cn1c(=O)c(-c2noc(C(=O)NCCCN3CCCC3)n2)nn(-c2ccccc2)c1=O	/	/	104	-142
35	Cc1ccc(NC(=O)CN2C(=O)C3(SCC(=O)N3c3cccc(Cl)c3)c3ccccc32)cc1C (stereo unspecified)	119	100	100	/
36	CCOc1ccc2nc(SCC(=O)NCC3CCCO3)c(C#N)cc2c1 (stereo unspecified)	106	97	99	-29
37	Cc1nn(CC(=O)N(Cc2ccccc2)C(C)C)c2ccccc12	100	90	100	3
38	Cc1cc(NC(=O)c2cc(-c3ccc(Cl)cc3)on2)nn1Cc1ccc(Cl)cc1	101	101	111	17
39	CC(C)NC(=O)CCc1nc2ccccc2c(=O)[nH]1	74	85	/	-7
40	CC1(C)C(=O)N(CC(=O)Nc2ccccc2F)c2ccc(S(=O)(=O)N3CCCC3)cc21	/	/	104	-5
41	COc1ccc(Cn2c(=O)oc3ccccc32)cc1	91	86	103	/
42	Cc1ccc(C(=O)OCC(=O)NC2CC2)cc1S(=O)(=O)N1CCOCC1	102	88	/	-16
43	Cn1ccnc1C(=O)c1cc(Sc2nnnn2-c2ccccc2)nc2ccccc12	96	94	/	-61
44	Cc1[nH]n(-c2ccccc2)c(=O)c1C1=c2ccccc2=NC1=O	83	68	/	68*
45	CCn1c(SCC2CCCCO2)nnc1-c1cccs1 (stereo unspecified)	109	98	/	5
46	O=C(COc1ccccc1-c1nc(-c2ccccc2)no1)Nc1ccccc1[N+](=O)[O-]	103	89	102	-19
47	COc1cc(NS(=O)(=O)c2ccc3[nH]c(=O)[nH]c3c2)cc(OC)c1	109	90	101	2
48	Clc1ccccc1N1CCN(Cc2ccsc2)CC1	104	101	101	4

Next section; it opens with the 3 that closed the last part.
entry	smiles	Sa growth 42C	Sa growth 42C second temp	GIV-Gai inh	HCMV UL50-53 inh
46	O=C(COc1ccccc1-c1nc(-c2ccccc2)no1)Nc1ccccc1[N+](=O)[O-]	103	89	102	-19
47	COc1cc(NS(=O)(=O)c2ccc3[nH]c(=O)[nH]c3c2)cc(OC)c1	109	90	101	2
48	Clc1ccccc1N1CCN(Cc2ccsc2)CC1	104	101	101	4
49	CN=C(Nc1ccc(OC)cc1)c1ccccc1	106	100	/	10
50	COc1ccc(-c2cn3c(n2)sc2cc(C(=O)NCCC4=CCCCC4)ccc23)cc1	130	97	108	/
51	Cc1ccc2c(CC(=O)OCc3nc(N)nc(Nc4ccccc4C)n3)coc2c1	143	100	/	7
52	NS(=O)(=O)c1ccc(NC(=O)NCC2CCCC(CNC(=O)Nc3ccc(S(N)(=O)=O)cc3)C2)cc1 (stereo unspecified)	80	76	/	-11
53	O=C(Cn1c(-c2ccccc2Cl)nc2ccccc2c1=O)Nc1ccc(F)cc1F	/	/	110	10
54	COc1ccc2c(c1)c(CC(=O)O)c(C)n2C(=O)c1ccccc1	/	/	106	-1
55	[S-]c1n[n+]2cccnc2s1	87	104	/	-11
56	O=C(Nc1ccc2ccccc2n1)Nc1nnc(C(F)(F)F)s1	/	/	107	-23
57	Clc1ccc2c(c1)nc1n2CCN(C2CCCCC2)C1	/	/	97	-29
58	N#C/C(=C\c1ccc2c(c1)OCO2)c1cccs1	103	86	106	-9
59	COc1ccc(CCCc2nnc(SCC(=O)NN)o2)c(C)c1	101	102	104	13
60	CCOC(=O)c1cc(NC(=O)c2ccccc2)c(=O)oc1C(F)(F)F	104	97	/	-2

Continued, overlapping the part above by three compounds.
entry	smiles	Sa growth 42C	Sa growth 42C second temp	GIV-Gai inh	HCMV UL50-53 inh
58	N#C/C(=C\c1ccc2c(c1)OCO2)c1cccs1	103	86	106	-9
59	COc1ccc(CCCc2nnc(SCC(=O)NN)o2)c(C)c1	101	102	104	13
60	CCOC(=O)c1cc(NC(=O)c2ccccc2)c(=O)oc1C(F)(F)F	104	97	/	-2
61	COc1ccc(-n2cc(C#N)c(=O)n(Cc3ccccc3)c2=O)cc1	93	89	110	-25
62	CCSc1sccc1C1C(C#N)=C(N)N(c2cccnc2)C2=C1C(=O)CCC2 (stereo unspecified)	94	77	105	-36
63	Cc1ccc(CSc2nnc(-n3c(=O)c(C#N)cc4c(=O)n5cccc(C)c5nc43)s2)cc1	103	81	99	-18
64	Cc1ccc(NC(=O)Cn2c(=O)oc3cc(S(=O)(=O)N4CCCCC4)ccc32)c(C)c1	122	81	107	-14
65	COc1nc(N)nc(CC(=O)C2CC2)n1	92	87	/	8
66	O=C1c2c(-c3ccc(Cl)cc3)csc2NC2CCCN12 (stereo unspecified)	94	84	/	-24
67	COC(=O)c1sc2cccc(F)c2c1S(=O)(=O)Nc1ccc(C)cc1Cl	115	60	102	/
68	O=C(NCc1ccccc1Cl)c1ccccc1NC(=O)c1nsc2ccccc12	120	76	105	/
69	CCOC(=O)CSc1nc2ccc(Br)cc2c2nc3ccccc3n12	93	83	99	/
70	O=C(Cn1nnc(-c2ccccc2)n1)N1CCc2ccccc21	88	88	/	-28
71	CCc1ccc(Nc2nnc(SCC(=O)NC3(C#N)CCCC3)s2)cc1	86	80	/	-22
72	CC1CCN(S(=O)(=O)c2ccc3c(c2)N(CC(=O)NCc2ccccc2Cl)C(=O)CS3)CC1	98	89	100	/
73	CC(C)Sc1nnnn1-c1ccccc1	105	105	102	18
74	COC(=O)c1cc2ccccc2nc1-c1ccc(F)cc1	85	72	/	-14
75	CN(CC(=O)Nc1cccc(F)c1)S(=O)(=O)c1ccc2c(c1)n(C)c(=O)c(=O)n2C	93	86	108	18
76	COc1cccc(N2CC(NC(=O)c3ccc(S(=O)(=O)N4CCOCC4)cc3)CC2=O)c1 (stereo unspecified)	106	99	93	/
77	O=C(NCCc1ccc(Cl)cc1)c1ccc(CS(=O)c2ccc(Cl)cc2)o1 (stereo unspecified)	88	79	104	/
78	CCCN(CCC)C(=O)CSc1ncccc1C(=O)O	94	90	104	3
79	NC1=NC(=O)/C(=C/c2ccc(-c3cc([N+](=O)[O-])ccc3Cl)o2)S1	/	/	102	-42
80	NC(=NCCc1ccccc1)Nc1nc2ccccc2[nH]1	105	94	107	-3
81	N#C/C(N)=C(\C#N)N=Cc1ccc(C(F)(F)F)cc1	93	90	108	-34
82	C=CCNC(=O)c1cc(-c2cccs2)nc2ccccc12	127	85	/	-42
83	Cc1cc(C)c(NC(=O)COCc2cc(-c3cccs3)on2)c(C)c1	117	85	99	/
84	COc1ccc(-n2c(=O)c3c4c(sc3n(Cc3ccccc3C)c2=O)CCCC4)c(OC)c1	97	86	104	-13
